Source: PubChem BioAssay
PINK1 modulator – A Quantitative High throughput Screen to Identify Chemical Modulators of PINK1 Expression | PINK1 immunofluorescence, high-content cytometry, 24 h | hit rate 0.2% among 410,000 | AID 624263, 2012 | Potency, µM (highest dose often 76.6 µM), for the others: at the highest dose activation (PINK1 increase), hits mostly activators; active = well fitted activation curve with a large enough effect; inconclusive = small, poorly fitted or top-dose-only effect; inactive = flat fitted curve, though single readings scatter; cell line not stated here;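 further: potency means the concentration at half of the fitted maximal effect; % of control where 0% means no effect; nearly all actives have a fitted effect of over 65% in size; a mitochondrial uncoupler was the plate control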
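Decision-based qHTS: stable cells, 24 h exposure to five compound concentrations, CCCP as control. Fixed cells stained for PINK1 plus nuclear, mitochondrial and cell markers, cytometer read.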
TRPV1 PAM – HTS Assay for Compounds that Act as Potentiators of the Vanilloid Receptor 1; AID 540277, 2011; Transient receptor potential cation channel subfamily V member 1 (Homo sapiens), Q8NER1; potentiation, % at 8.33 µM; hit rate 0.02% among 320,000; TRPV1-expressing cells, Fluo-8 calcium influx, capsaicin EC20 potentiation; host cell line not named in the record; control for the full effect not named in the record; active means potentiation above 80%; inconclusive means 30% to 80%; inactive means below 30%; further: 0% is about no effect
Target sequence (Q8NER1 whole entry, looked up): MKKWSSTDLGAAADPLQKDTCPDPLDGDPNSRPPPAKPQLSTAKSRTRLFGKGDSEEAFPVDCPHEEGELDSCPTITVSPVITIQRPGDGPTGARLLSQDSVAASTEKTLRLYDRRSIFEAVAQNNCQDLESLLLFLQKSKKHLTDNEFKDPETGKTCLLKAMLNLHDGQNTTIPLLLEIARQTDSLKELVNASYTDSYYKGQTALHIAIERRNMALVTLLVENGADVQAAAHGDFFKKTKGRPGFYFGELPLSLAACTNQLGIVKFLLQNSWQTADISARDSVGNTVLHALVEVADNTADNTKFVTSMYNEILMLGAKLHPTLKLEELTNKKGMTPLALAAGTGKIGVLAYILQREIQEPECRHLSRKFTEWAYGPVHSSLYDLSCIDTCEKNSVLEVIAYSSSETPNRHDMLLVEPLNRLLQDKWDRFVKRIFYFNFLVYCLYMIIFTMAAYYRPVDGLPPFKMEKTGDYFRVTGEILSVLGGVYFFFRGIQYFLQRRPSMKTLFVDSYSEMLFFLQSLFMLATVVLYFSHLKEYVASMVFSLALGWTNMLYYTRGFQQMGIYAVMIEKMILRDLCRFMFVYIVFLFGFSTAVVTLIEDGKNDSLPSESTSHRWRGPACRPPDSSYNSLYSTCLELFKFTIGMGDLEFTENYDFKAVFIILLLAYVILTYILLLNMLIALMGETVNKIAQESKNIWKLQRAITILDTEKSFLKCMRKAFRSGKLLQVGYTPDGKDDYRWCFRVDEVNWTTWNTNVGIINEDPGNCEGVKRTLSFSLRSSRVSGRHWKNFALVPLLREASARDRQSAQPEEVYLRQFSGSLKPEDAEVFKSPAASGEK
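Cells expressing TRPV1 were dye-loaded with Fluo-8 and read kinetically: 10 s baseline, 3 min after compound (agonist portion), then 2 min after EC20 capsaicin (allosteric enhancer portion). Calcium-bound dye fluorescence at 480/520 nm.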
ClpP mod – qHTS Assay for Activators of ClpP; ATP-dependent Clp protease proteolytic subunit (Bacillus subtilis (strain 168)), P80244; purified B. subtilis ClpP, FRET peptide cleavage, 20 min; Potency, µM (doses to about 57.5 µM), for the others: at the top dose activity change, negative = active; hit rate 1.9% among 340,000; AID 651965, 2013; active = well fitted falling curve with a large enough effect; inconclusive = small, poorly fitted or top-dose-only effect; inactive = no such curve, though single readings can be large or run the other way; further: potency means the concentration at half of the fitted maximal effect; the source files actives as falling curves though it sought activators and does not explain the sign; nearly all actives have a fitted effect of over 65% in size; many hits overshoot -100%
Target sequence (P80244 whole entry, looked up): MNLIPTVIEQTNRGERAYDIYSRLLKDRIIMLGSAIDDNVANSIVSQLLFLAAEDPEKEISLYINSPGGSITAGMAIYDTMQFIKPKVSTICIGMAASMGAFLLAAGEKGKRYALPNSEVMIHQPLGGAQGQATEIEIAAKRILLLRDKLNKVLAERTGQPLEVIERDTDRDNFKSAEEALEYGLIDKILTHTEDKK
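Buffer: 100 mM Tris/HCl pH8, 100 mM KCl, 0.05% low protease BSA, 2.5% glycerol, 0.01% Tween-20. ClpP 10 microg/mL final; 20 min RT; delta FRET normalized to ADEP and DMSO controls.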
Sfp PPTase inh – qHTS Assay for Inhibitors of Bacillus subtilis Sfp phosphopantetheinyl transferase (PPTase); Potency, µM, inactives show max response, negative = inhibition, actives largely listed as inhibitors; hit rate 3.5% among 310,000; Biochemical Sfp PPTase activity, qHTS; 4'-phosphopantetheinyl transferase ffp (Bacillus subtilis), Q9F4F7; AID 1490, 2009; active means well fitted inhibition curve with a large enough effect; inconclusive means small, poorly fitted or top-dose-only effect, or another doubt; inactive means no such curve, though single readings can be large or run the other way;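 further: the enzyme is Sfp with the accession as filed and its product quenches rhodamine fluorescence; potency means the concentration at half of the fitted maximal effect; 0% = enzyme reaction without inhibitor and -100% = no enzyme wells; top concentration of the series not given in the record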
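Sfp 15 nM + cpd, 15 min RT; start w/ rhodamine-CoA 5 uM, BHQ-2-YbbR 12.5 uM (final); 50 mM Hepes pH 7.6, 10 mM MgCl2, 0.01% NP-40, 0.01% BSA; read 525/598 nm at 0 and 30 min.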
TRPML1 inh – qHTS for Inhibitors of the Human Mucolipin Transient Receptor Potential 1 (TRPML1); Mucolipin-1 (Homo sapiens), Q9GZU1; TRPML1-inducible cells, Ca2+ dye fluorescence, FDSS; active compounds read low; inhibition of EC80 agonist-evoked calcium signal; activity change, negative = inhibition, % (no concentration beside the values); hit rate 0.02% among 390,000; AID 624415, 2012; in the data active means activity change below about -50%; inconclusive means about -30% to -50%; inactive means above about -30%;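 further: stimulus is agonist 54-4 at its EC80 concentration; on the % scale 0 is the no-effect control and ±100 the full control effect; compound concentration not given in the record; the text of the record puts the active cut at -80%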
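TRPML1-DL cells, Tet-induced overnight (~16 h, 37 °C) at 1,500 cells/well, were loaded with Ca8 no-wash dye plus quencher for 45-90 min at room temperature. Compounds were pinned during FDSS kinetic reading; agonist 54-4 at EC80 (4 uM final) then added.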
TRPML1 agonist – qHTS for Agonists of the Human Mucolipin Transient Receptor Potential 1 (TRPML1). activation, % (concentration not given with the values). Mucolipin-1 (Homo sapiens), Q9GZU1. AID 624414, 2012. TRPML1-expressing cells, Ca2+ dye fluorescence, FDSS; host cell line not named in the record; reference of the full effect not given here. hit rate 0.12% among 410,000; in the data active = activation above about 50%; inconclusive = about 30% to 50%; inactive = below about 30%; further: 0% is about no effect; the text of the record puts the active cut at 80%
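Tetracycline-induced TRPML1-DL cells are seeded and incubated overnight before loading with a no-wash Ca2+ dye and quencher. Agonist activity is taken from the 110 s fluorescence read following compound pin-transfer on an FDSS, before EC80 54-4 challenge.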
Menin-MLL FL inh – qHTS Assay for Inhibitors Targeting the Menin-MLL Interaction in MLL Related Leukemias: Competition With Fluorescein Labeled MLL-derived Peptide | Fluorescence polarization, fluorescein-MLL peptide displacement from menin | FP activity change, % at 61.4 µM | 290,000 tested, under 10 active; inconclusive = falling polarisation curve, or a change in total fluorescence; inactive = total fluorescence flat and polarisation flat or rising; no compound was filed as active; the % refers to the polarisation; negative = inhibition;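 further: % of control where 0% means no effect; inhibitors lower the polarisation; unlabelled MLL peptide was the positive control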
Numbers without * were called inactive; u = inconclusive; x = no result given; [ ] = another dose, or the depositor's remark.

SMILES	PINK1 modulator	TRPV1 PAM	ClpP mod	Sfp PPTase inh	TRPML1 inh	TRPML1 agonist	Menin-MLL FL inh
COc1ccc(Cn2c(C(=O)O)c(CNCCc3ccco3)c3ccc(C)cc32)cc1	-0.1%	x	-6.4%	x	13.1	2.9	x
Nc1nnnn1/N=C/c1ccc(Br)cc1	0.2%	-4.2	0.0%	-2.0%	-2.1	0.7	2.1
Cc1cccc(C)c1OCC(O)CNC(C)C (configuration not stated)	0.6%	28.2	-1.2%	6.3%	-1.0	1.2	5.4
CCOc1cccc(-c2nnc3sc(-c4ccco4)nn23)c1	3.7%	-7.2	-5.1%	-14.6%	1.0	1.5	3.7
COc1cccc(CN2CC(C(=O)NCCn3ccc(C)n3)CCC2=O)c1 (configuration not stated)	0.4%	-1.5	-1.0%	17.3%	-5.2	-0.2	x
CC(C)(C)OC(=O)NCCc1nnc(SCc2ccccc2)o1	1.8%	9.1	1.5%	9.8%	-7.5	-1.2	6.6
O=C(NC1CCCCC1)c1cc(S(=O)(=O)N2CCOCC2)ccc1Cl	1.4%	4.2	x	4.3%	-0.5	1.2	1.2
COc1ccc(-n2nc(C(=O)N3CCN(c4cccc(C)c4)C(C)C3)c3c4ccccc4n(C)c3c2=O)cc1 (configuration not stated)	2.7%	x	-6.7%	x	10.2	3.4	x
COc1ccc(COC(=O)N/N=C(\C)CC(=O)Nc2c(C)cc(C)cc2C)cc1	-1.5%	20.4	-0.8%	14.7%	10.3	-0.1	3.6
Cc1cccc(C)c1NC(=O)c1ccc(-c2ccc(Cl)cc2Cl)o1	0.2%	4.9	-3.2%	-12.4%	63.7	3.4	-0.1
COc1cccc(NC(=O)CN(C)C(=O)COc2cc(C)ccc2Cl)c1	-2.6%	2.0	x	x	1.7	0.2	x
Cc1ccc(CNC(=O)c2ccc3c(c2)NC(=O)CS3)cc1	1.8%	-8.5	0.2%	1.3%	2.9	0.2	-3.8
COc1ccc(NC(=O)CSc2nnnn2Cc2ccccc2)cc1	-2.0%	-23.0	0.7%	-11.0%	-5.9	1.1	-0.8
C/C(=N\NC(=O)c1ccc(OC2CCCC2)cc1)c1ccc(C)s1	6.8%	u	1.9%	16.4%	-7.2	2.6	6.9
CC1CC(C)CN(C(=O)C(C)N2CCN(S(=O)(=O)c3cccs3)CC2)C1 (configuration not stated)	0.4%	-6.9	-0.7%	x	-0.5	-0.2	x
Cc1ccc(NC(=O)c2cnn3c(C(F)F)cc(-c4ccccc4)nc23)cc1F	-0.2%	x	-1.6%	x	-9.2	-0.5	x
Cc1ccc(CC2C(=O)N(c3ccc(C)cc3)C(=O)C2C)cc1 (configuration not stated)	2.3%	-5.3	x	11.5%	24.5	1.2	0.4
CCOc1ccccc1/C=N/Nc1cc(C)nc2ccc(C)cc12	0.4%	-1.1	-0.6%	-11.9%	4.2	-0.8	0.1
CC(NS(C)(=O)=O)C(c1cccs1)N1CCN(Cc2ccccc2)CC1 (configuration not stated)	-0.7%	-6.0	-3.7%	14.2%	1.8	-0.3	6.5
CN(c1ccc(-c2csc(NC(=O)C3CC(=O)N(Cc4ccco4)C3)n2)cc1)S(C)(=O)=O (configuration not stated)	0.7%	3.8	-10.1%	x	-0.2	0.2	x
C[C@H](NC(=O)C1CCN(S(=O)(=O)c2ccccc2)CC1)C(=O)NCc1cccc(Cl)c1	-0.9%	-11.1	-0.3%	3.1%	-3.3	-0.9	x
O=C(N/N=C1\CCCc2c1[nH]c1ccc(Cl)cc21)c1ccncc1	0.6%	14.4	-2.4%	-19.7%	-11.0	0.3	2.2
CN(CC(=O)NCCc1ccccc1)S(=O)(=O)c1ccc(Br)s1	0.4%	22.5	-1.4%	1.6%	-19.1	-0.9	-4.5
COc1ccc(C(=O)NCCCc2ccccc2)cc1OC	-1.3%	u	x	3.4%	9.4	-0.3	-12.3
O=C(c1ccccc1NS(=O)(=O)c1ccccc1[N+](=O)[O-])N1CCOCC1	-0.4%	-7.5	-0.6%	-19.3%	6.6	0.0	-1.5

(listing goes on)
SMILES	PINK1 modulator	TRPV1 PAM	ClpP mod	Sfp PPTase inh	TRPML1 inh	TRPML1 agonist	Menin-MLL FL inh
CCN(CC)C(=O)c1sc2c(c1C)c(=O)n(-c1ccc(C)c(C)c1)c(=O)n2Cc1cc(=O)n2c(C)cccc2n1	2.3%	x	-2.8%	x	27.8	0.0	x
COc1ccc2c(c1)CCc1c(C(=O)Nc3c(C)n(C)n(-c4ccccc4)c3=O)noc1-2	2.1%	0.5	-3.0%	17.7%	-8.1	-0.3	5.1
Cc1ccc(-c2nc(N)n(C(=O)c3cccnc3)n2)cc1	0.1%	-11.4	-9.5%	-8.3%	13.3	-0.2	2.5
COCc1cc(=O)n2c(-c3ccccc3OC)n[nH]c2n1	4.4%[38.3 µM]	-1.7	u	9.2%	13.9	-0.5	4.2
C=CCn1c(SCC(=O)Nc2ccc(C(=O)OCC)cc2)nnc1-c1sc(N)nc1C	-1.2%	5.3	2.2%	2.3%	5.0	-0.5	1.8
Cc1cccc(CN2C(=O)c3ccccc3S(=O)(=O)c3ccc(C(=O)N4CCN(c5cc(C)ccc5C)CC4)cc32)c1	0.2%	x	-2.3%	x	2.0	-0.3	x
Cc1cc(=O)oc2c(CN3CCCCC3)c(O)ccc12	3.3%	x	-26.5%	x	1.9	-0.3	x
O=C(Nc1ccc(Cl)c(Cl)c1)NC1CCS(=O)(=O)C1 (configuration not stated)	0.7%	-11.7	x	13.3%	3.8	1.2	0.9
CNc1cc(CSC)nc(SCc2ccc(Cl)c(Cl)c2)n1	u	-0.2	-0.8%	15.5%	0.7	2.0	1.5
O=C1C2N=NN(CC(=O)N3N=C(c4cccc5ccccc45)CC3c3ccccc3)C2C(=O)N1c1ccccc1 (configuration not stated)	-0.3%	7.1	u	13.9%	8.3	1.9	3.4
COc1ccc(NC(=O)C(c2ccccc2)c2ccccc2)c(OC)c1	1.4%	x	-0.2%	x	-1.7	0.0	x
COCCCNC(=O)COc1ccc(Cl)c(C)c1	1.3%	-8.4	-2.2%	4.3%	6.6	0.3	-0.4
Nc1cccc2c1C(=O)N(C(=O)c1cccc(S(=O)(=O)N3CCCCCC3)c1)C2=O	-1.3%	-11.0	56.5%	-17.1%	-17.7	1.7	u
CCOc1ccc2nc(C)cc(C(=O)O)c2c1	11.6%[38.3 µM]	0.7	3.16µM*	6.1%	0.0	0.2	-0.6
Cc1ccc(C)c(S(=O)(=O)N2CCCC2CNC(=O)C(=O)NCC2CCCO2)c1 (configuration not stated)	3.0%	5.9	x	x	-9.2	-0.9	x
CC(Oc1ccccc1F)C(=O)NNC(=O)CCS(=O)(=O)c1ccccc1Cl (configuration not stated)	0.2%	-4.1	-1.1%	x	-6.7	-1.2	x
N#Cc1nc(-c2ccccc2F)oc1NCCc1ccccn1	0.4%	-2.8	-0.9%	5.9%	0.9	0.7	u
Cc1ccc(-n2c(C)cc(/C=C3\NC(=O)NC3=O)c2C)c(C)c1	-2.2%	0.0	-0.6%	-24.2%	14.2	0.3	4.2
CCN(CC)CCSc1nnc2c3cc(F)ccc3n(Cc3ccccc3)c2n1	2.0%	-3.4	x	9.1%	8.8	2.1	0.8
O=C(C1CC1)N1N=C(c2ccncc2)CC1(O)C(F)(F)F (configuration not stated)	-2.5%	6.8	x	11.7%	4.3	0.7	-0.5
O=C(NCc1cccnc1)Nc1cccc(NC(=O)NCc2cccnc2)c1	0.8%	-25.5	-0.8%	7.7%	2.7	-0.7	-2.0
CCc1nn(C(C)C(=O)N2CCN(Cc3ccccc3)CC2)c(=O)c2cc3occc3n12 (configuration not stated)	-2.7%	1.1	0.6%	1.1%	-7.8	-0.9	2.3
Cc1ccc(S(=O)(=O)N2CCN(CCNC(=O)C(=O)Nc3ccc(F)cc3)CC2)cc1	6.1%	-4.4	x	-13.5%	-2.6	-0.5	3.8
COc1ccc(S(=O)(=O)NC(C)CCc2ccccc2)cc1 (configuration not stated)	-0.3%	7.8	x	10.7%	4.8	3.9	-0.8
Cc1ccccc1/C(N)=N/OC(=O)/C=C/c1ccccc1	-2.9%	8.5	-1.4%	6.6%	1.4	0.4	1.1

The list continues:
SMILES	PINK1 modulator	TRPV1 PAM	ClpP mod	Sfp PPTase inh	TRPML1 inh	TRPML1 agonist	Menin-MLL FL inh
CC(C)Oc1ccc(CNC(=O)C2CCN(Cc3cc4ccccc4n3Cc3ccccc3)CC2)cc1	0.7%	x	-10.0%	x	-4.0	2.4	x
O=c1c2ccccc2nc2n1CCN2Cc1ccc(Cl)cc1	x	-10.4	u	13.5%	-2.1	1.1	3.3
Cc1cc(NC(=O)CSc2nnc(-c3ccccc3C)n2C)no1	2.6%	7.1	-0.3%	x	-10.8	-0.3	x
O=C(c1ccc([N+](=O)[O-])cc1)n1nc(-c2ccccc2)nc1NCc1ccc(F)cc1	2.7%	25.3	-3.8%	-3.6%	-0.8	-0.1	7.6
O=C(CSCc1ccc([N+](=O)[O-])cc1)NCCSCc1ccccc1	-2.8%	-29.5	-0.6%	5.7%	6.6	-1.1	2.4
CC(=O)c1cccc(N(CC(=O)O)S(C)(=O)=O)c1	-1.2%	-0.4	-3.6%	5.7%	-11.4	-0.4	3.3
Cc1ccc(CNc2nc(-c3cccs3)nc3ccccc23)cc1	u	16.0	u	-6.7%	4.7	3.4	6.0
CCOC(=O)C1CCCN(C(=O)c2[nH]c(C(F)(F)F)nc2-c2ccccc2)C1 (configuration not stated)	-0.9%	x	-0.1%	x	x	-0.4	x
COc1ccc(NC(=O)c2cnc3sc(N4CCOCC4)nn3c2=O)c(OC)c1	3.9%	x	0.7%	x	-13.3	-0.2	x
